# RanGTP-Imp inh: disruptors of Ran-importin-beta complex formation – biochemical, FRET, CFP-Ran, YFP-importin-beta, homogeneous, primary screen | cell-free CFP-Ran/YFP-importin-beta FRET ratio | inhibition, % (test concentration not listed) | 1.1% of 300,000 active | AID 2216;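 active = most replicates above 15%; inconclusive = exactly half above 15%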;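 also: 0% = DMSO wells and 100% = Ran loaded with GDP instead of GTP; wells of about 40 µL received 100 nL stock; the first replicate is given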
# Calb FLC: C. albicans growth modulation with fluconazole; C. albicans CaCi-2 (fluconazole-resistant clinical isolate) + fluconazole, Alamar Blue growth, 48 h; growth inhibition, % (test concentration not listed); 0.57% of 300,000 active;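 active = most replicates above 75%; inconclusive = exactly half above 75%; inactive = most below 75%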;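 also: all wells also contain fluconazole at 8 µg/ml as a sub-toxic cotreatment; 0% = median of DMSO wells and 100% = median of geldanamycin control wells; wells of about 8 µL received 7.5 nL stock; the first replicate is given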
# ALR inh: blocks human ALR sulfhydryl oxidase activity; P55789; purified ALR, DTT oxidation, H2O2 HRP-luminol luminescence; inhibition, % (no concentration beside the values); 3.8% of 290,000 active;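 active = mean and each replicate at 75% or more; inconclusive = only one of the two met; inactive = neither met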;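 also: stock transfer was 7.5 nL into about 7.5 µL; 0% = neutral wells and 100% = wells with inactivated enzyme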
# Target sequence (P55789 whole entry, looked up): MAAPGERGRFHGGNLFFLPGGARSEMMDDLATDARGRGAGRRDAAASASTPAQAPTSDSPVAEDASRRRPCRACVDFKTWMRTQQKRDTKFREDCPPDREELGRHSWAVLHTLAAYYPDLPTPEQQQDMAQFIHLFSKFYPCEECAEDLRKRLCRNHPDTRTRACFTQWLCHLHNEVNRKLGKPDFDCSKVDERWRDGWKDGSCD
# LANA-H2A inh: blocks KSHV LANA binding to histone H2A/H2B | Q9QR71 | cell-free LANA-H2A/H2B peptide, fluorescence polarization | inhibition, % (concentration not given with the values) | 0.6% of 320,000 active | AID 2629; in the data active = inhibition mostly above about 10%, no sharp cut-off; inactive = mostly below about 6.7%;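 also: stock transfer was 7.5 nL into about 10 µL; 0% = median of vehicle wells and 100% = median of positive control wells; one replicate is shown; the record names a cut of 25% in any replicate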
# Vif A3G: HIV-1 Vif–A3G interaction blockers – biochemical, TR-FRET, GST-Vif 1-94, biotin-A3G peptide, dose response retest, primary screen (AID 1117319); inhibition, %, or IC50 in µM where a hit was titrated; 0.57% of 260,000 active; TR-FRET GST-Vif / biotin-A3G peptide binding; higher % means a stronger effect; test concentration not given here; strong numbers were not always called active;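 active = above the screen mean plus three standard deviations and confirmed in dose response; inconclusive = results disagree or hit not tested in dose response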;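 also: Vif residues 1-94 fused to GST binding biotinylated APOBEC3G peptide 110-148; 0% = full assay without inhibitor and 100% = GST in place of GST-Vif; retest series ran down from 100 µM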
# B2AR ag: activates human beta-2 adrenergic receptor causing internalization; Am2.2-beta2AR cells, FAP receptor internalization, flow cytometry; reference of the scale not given here; response, % (no concentration beside the values); 0.43% of 340,000 active;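 active = response above a set limit, near 3 SD of response in nonfluorescent compounds, cut at about 42% in these data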;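 also: stock transfer was 100 nL into about 11 µL; a reference agonist was the positive control; negative values mostly stem from fluorescent compounds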
# Target sequence (P07550 whole entry, looked up): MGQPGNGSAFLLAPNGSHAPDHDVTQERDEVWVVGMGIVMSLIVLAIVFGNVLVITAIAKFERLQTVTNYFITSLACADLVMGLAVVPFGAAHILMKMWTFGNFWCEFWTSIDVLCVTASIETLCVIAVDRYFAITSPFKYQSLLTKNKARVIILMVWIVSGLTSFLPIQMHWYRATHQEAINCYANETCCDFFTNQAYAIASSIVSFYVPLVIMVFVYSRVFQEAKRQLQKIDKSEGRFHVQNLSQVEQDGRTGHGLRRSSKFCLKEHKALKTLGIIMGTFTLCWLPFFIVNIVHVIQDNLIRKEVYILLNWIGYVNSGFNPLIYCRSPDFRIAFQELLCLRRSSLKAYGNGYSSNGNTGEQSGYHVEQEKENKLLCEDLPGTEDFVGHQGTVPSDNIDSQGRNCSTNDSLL
# HNF4A DNA FP: change in binding of human HNF4 alpha to DNA. P41235. HNF4a-FITC DNA binding, fluorescence polarization, 1 h. activity change, % at 10 µM. 0.3% of 360,000 active; in the data active = activity change above about 30%, passing the limit was not always enough;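 also: controls were the assay level and a saturating level of protein; the project sought stronger binding though the title names inhibitors; some compounds called inactive have numbers as strong as hits; positive values seem to mean higher polarization but the record does not say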
# Target sequence (P41235 whole entry, looked up): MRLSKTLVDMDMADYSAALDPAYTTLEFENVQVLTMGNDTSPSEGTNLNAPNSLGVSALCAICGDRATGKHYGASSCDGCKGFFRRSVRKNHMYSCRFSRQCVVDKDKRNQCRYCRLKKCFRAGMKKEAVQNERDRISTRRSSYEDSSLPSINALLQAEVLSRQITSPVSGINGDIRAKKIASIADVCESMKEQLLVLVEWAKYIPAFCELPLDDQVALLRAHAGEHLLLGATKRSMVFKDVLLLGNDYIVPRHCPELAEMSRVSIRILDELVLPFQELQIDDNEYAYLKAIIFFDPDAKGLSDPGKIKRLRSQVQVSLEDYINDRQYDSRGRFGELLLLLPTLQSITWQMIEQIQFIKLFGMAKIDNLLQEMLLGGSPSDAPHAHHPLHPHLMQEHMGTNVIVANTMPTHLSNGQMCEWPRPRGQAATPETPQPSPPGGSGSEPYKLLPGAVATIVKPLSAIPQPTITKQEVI
# An asterisk follows results filed as active; ? = inconclusive; / = no result given; & = joins results of further samples.
SMILES	RanGTP-Imp inh	Calb FLC	ALR inh	LANA-H2A inh	Vif A3G	B2AR ag	HNF4A DNA FP
Cc1cccc(N2CN(Cc3ccco3)CNC2=S)c1C	0.0	-11	-1	5.3	0%	-6	-0.4
COc1ccc(C(=O)NC(=S)N2CCC(C)CC2)cc1	-1.8	-5	/	-3.9	2%	2	2.3
COC(=O)C1=C(C)Nc2nnnn2C1c1ccc(Cl)cc1Cl (stereo not given)	-1.5	?	12	-2.3	3%	-10	-2.6
NC(=O)c1ccccc1N	0.3	3	/	-3.8	/	1	1.7
COc1ccc(-c2ccc(/C=C3\C(=O)N(c4ccccc4)N=C3c3ccccc3)o2)c([N+](=O)[O-])c1	4.7	-1	0	-3.2	-5%	-2	-3.6
Cc1ccc(NC(=S)NN2CCN(C)CC2)cc1	1.0	-10	21	1.7	-2%	3	0.7
COc1cccc(NC(=O)NC(C)C2CC3CCC2C3)c1 (stereo not given)	0.6	2	-2	-0.1	?	-1	4.4
O=C(COc1ccc(Cl)cc1Cl)N(Cc1ccco1)C1CCS(=O)(=O)C1 (stereo not given)	-2.4	11	0	0.8	-3%	-10	1.4
Cc1ccc(S(=O)(=O)NCC(=O)N/N=C/c2ccc(Cl)cc2)cc1	2.5	0	4	1.7	9%	-3	1.2
Cc1cc(C)cc(SCc2noc(C(=O)NCCC(C)C)c2C(=O)NCCC(C)C)c1	2.4	-3	-1	3.5	/	1	-2.8
O=C(N/N=C/c1cccc(Oc2ccc([N+](=O)[O-])cc2[N+](=O)[O-])c1)c1cncc(Br)c1	-3.7	1	-3	4.2	?	12	4.0
Cc1cccc(-c2csc(N)c2C(=O)OC(C)C)c1	0.6	6	23	-1.0	-1%	1	-3.3
COc1cccc(NC(=O)Cn2c(CCC(=O)O)ccc2-c2ccccc2)c1	3.0	4	0	0.8	-9%	5	3.6
O=C(NCC1COc2ccccc2O1)C1C2C=CC3(CN(Cc4cccs4)C(=O)C13)O2 (stereo not given)	0.1	-6	/	0.8	-5%	6	-3.3
CCCCn1nc(NC(=O)COC)c2cc3cc(OC)ccc3nc21	99*	-4	/	3.4	-6%	11	5.2

# (cont.)
SMILES	RanGTP-Imp inh	Calb FLC	ALR inh	LANA-H2A inh	Vif A3G	B2AR ag	HNF4A DNA FP
CCC(C)[C@H]1CNC(=S)N1CCc1cccc2ccccc12 (stereo not given in full)	0.9	-14	-7	-0.8	-9%	6	5.2
COc1ccc(C(=O)C2CCN(CC(=O)NCc3ccccc3)CC2)cc1	1.4	-5	-1	-1.2	/	-6	-1.4
COC(=O)c1cc2c(ccn2-c2ccc(F)cc2)n1Cc1ccc(C#N)cc1	5.3	-8	44	3.4	/	-1	3.7
CS(=O)(=O)N(CC(=O)NCc1ccccn1)c1ccc2c(c1)OCCO2	0.6	3	-2	4.4	24%	-3	2.8
CN1CCN(C2=Nc3c(Cl)cc(Cl)c4cccc2c34)CC1	-8.5	41	-83	1.7	/	6	0.8
Cc1cc(C(=O)Nc2c(F)cc(F)cc2Br)cs1	6.4	-4	-3	-0.8	/	0	0.8
COC(=O)C1=C(C)Nc2c(c(=O)n(C)c(=O)n2C)C1c1ccc(C)cc1 (stereo not given)	/	-15	16	5.7	-7%	-19	4.4
CSCCC(NS(=O)(=O)c1ccc(Cl)cc1)C(=O)OCC(=O)N1CCCc2ccccc21 (stereo not given)	0.9	5	-6	0.2	8%	0	-1.5
CCCCNC(=O)COC(=O)c1ccc(F)cc1Cl	0.2	-5	-1	-15	-5%	2	-2.8
CCOc1ccc(S(=O)(=O)NCCC(=O)NC(C)CCc2ccccc2)cc1 (stereo not given)	?	-7	0	2.0	-2%	-4	3.2
O=C(O)CCCSc1nccn1-c1ccccc1	3.2	-13	1	1.5	-4%	9	1.0
COc1cccc(C2(C)NC(=O)N(CC(=O)Nc3ccc(N4CCOCC4)cc3)C2=O)c1 (stereo not given)	/	/	14	4.9	-5%	-1	2.4
O=C(CSc1nnc(-c2cccnc2)s1)Nc1ccnc2ccccc12	-0.5	-5	/	-0.1	/	-26	-2.4
CC(=O)Nc1ccccc1-c1nnc(SCc2ccccc2Cl)[nH]c1=O	?	-2	99*	-0.3	2%	2	-2.9
Cc1cc(Nc2ccccc2)n(C(=O)c2ccccc2)n1	1.4	7	37	2.1	2%	2	3.5

# (further entries)
SMILES	RanGTP-Imp inh	Calb FLC	ALR inh	LANA-H2A inh	Vif A3G	B2AR ag	HNF4A DNA FP
Cc1cccn2cc(CSc3nnc(Nc4ccc(C(C)C)cc4)s3)nc12	5.0	-9	12	2.0	25%	-4	-3.3
COCCCN(CC(=O)NCc1ccccc1)S(=O)(=O)c1ccc(C)cc1	-3.6	-2	17	-0.8	-2%	0	1.4
COc1cc(Cc2nc3ccc(S(=O)(=O)N4CCOCC4)cc3[nH]2)cc(OC)c1OC	?	-10	-21	3.6	1%	7	1.9
CC(=O)c1cc2c(cc1NC(=O)CCc1c(C)nc3ncnn3c1C)OCO2	/	/	/	0.8	-1%	-2	2.8
Cc1nn(-c2cccc(C(F)(F)F)c2)c(Cl)c1/C=N/Nc1cccc(C(=O)O)c1	1.3	15	/	8.3	/	11	0.0
O=C(CN1CCN(C(=O)c2ccccc2)CC1)Nc1ccc(Br)cn1	4.1	0	-4	-0.6	1%	-4	-2.0
Cc1ccc(-c2cc(C(F)F)nc(N3CCOCC3)n2)cc1	-1.4	?	0	3.5	-6%	17	-1.5
COc1ccccc1/C=C/CN1CCCC(CO)(Cc2cccc(Cl)c2)C1 (stereo not given)	-1.0	3	/	0.0	?	-2	-3.0
CC(Oc1ccc(Cl)cc1)c1ccc(C#N)c(=O)[nH]1 (stereo not given)	0.0	11	-5	7.0	-2%	2	-2.3
O=C(NCCN1CCOCC1)C1CC(=O)N(c2cccc(C(F)(F)F)c2)C1 (stereo not given)	/	/	/	/	-10%	2	3.4
CC1Cc2cc(/C(O)=C3\C(=O)C(=O)N(CCN(C)C)C3c3ccccc3F)ccc2O1 (stereo not given)	-0.8	-1	12	-0.1	6%	6	0.0
Cc1ccc(N2CCN(C(=O)c3cccs3)CC2)c(C)c1	3.3	-18	9	-0.7	0%	-5	-1.9
COc1cc(-c2nnc3sc(C4CCCCC4)nn23)cc(OC)c1OC	-6.2	4	-2	0.1	-5%	-8	-0.6
Cc1ccc(C(O)Cn2cc([N+](=O)[O-])nc2C)cc1 (stereo not given)	0.0	-1	-14	0.4	-7%	-4	-4.0
COc1ccc(C(C)(C)C)cc1NC(=O)Cn1cnnn1	1.7	13	7	-2.2	/	-3	6.5

# (list continues)
SMILES	RanGTP-Imp inh	Calb FLC	ALR inh	LANA-H2A inh	Vif A3G	B2AR ag	HNF4A DNA FP
CC1CCCN(Cc2c(O)ccc3c4c(c(=O)oc23)CCCC4)C1 (stereo not given)	10	0	5	1.2	-5%	-12	0.9
Cc1ccc(C)c(NC(=S)Nc2cccc3cnccc23)c1	1.0	26	-37	2.3	15%	8	0.6
Cc1cc2cc(CNC(=O)c3cc4ccccc4o3)ccc2n1C	/	-19	-9	0.9	-2%	/	/
CC1(C)C2([N+](=O)[O-])CN3CC1([N+](=O)[O-])CN(C2)C3c1ccccc1 (stereo not given)	-2.6	-8	-3	0.3	10%	-2	0.0
Cc1cc(C(=O)COC(=O)c2cc(Cl)ccc2N)c(C)n1Cc1ccco1	-3.0	-3	-15	6.3	11%	-6	-0.8
COc1cc(NC(=O)Cc2c(C(=O)O)[nH]c3ccccc23)cc(OC)c1OC	-2.6	0	-4	-3.4	-8%	8	0.7
Cc1ccc(-n2c(SCC(=O)NCCN3C(=O)CSC3=O)nnc2-c2cccc(C)c2)cc1	0.4	-1	/	2.6	-3%	0	2.4
COc1nc(N(c2ccccc2)c2ccccc2)nc(-n2ccnc2)n1	-2.0	-4	-2	-0.6	26µM*	1	1.9
Cc1cccc(NC(=O)CSc2nnnn2-c2ccc3c(c2)OCCO3)n1	?	4	-14	-14	/	-3	2.1
CCCCOc1ccc(/C=C/C(=O)OCC(=O)N2CC(=O)Nc3ccccc32)cc1OCC	3.1	-8	-18	-5.6	/	44*	0.1
CC(C)C(C(=O)Nc1ccc(S(=O)(=O)N2CCOCC2)cc1)N1C(=O)c2ccccc2C1=O (stereo not given)	1.0	-21	-14	-3.7	-1%	9	-8.5
O=C(NCc1ccc2c(c1)OCO2)C(=O)NCC1OCCN1S(=O)(=O)c1ccccc1 (stereo not given)	3.0	-24	/	-2.8	-3%	1	7.4
CN(C)CCCNC(=S)N1CCn2c(nc3ccccc32)C1	-0.4	10	-22	0.5	-1%	-12	-2.3
Cc1[nH]nc(-c2ccc(O)c(C)c2O)c1-c1cnn(-c2ccccc2)c1	2.3	106*	29	-10	1%	10	0.8
CC1(C)OC2OC3C(CNCCO)OC(c4ccccc4)OC3C2O1 (stereo not given)	/	/	/	/	1%	6	-0.4

# Next part.
SMILES	RanGTP-Imp inh	Calb FLC	ALR inh	LANA-H2A inh	Vif A3G	B2AR ag	HNF4A DNA FP
CN1CCN(S(=O)(=O)c2ccc(NC(=O)Nc3cccc(Cl)c3)cc2)CC1	2.3	-3	-3	1.5	75%&6%	21	0.2
CCOc1cc(-c2nc(C)c(C(C)=O)n2O)ccc1OCC(=O)Nc1ccccc1	0.8	-11	11	5.8	4%	0	-0.1
CC(C)c1ccc(NC2CCCN(C(=O)c3cccnc3)C2)cc1 (stereo not given)	3.8	4	69	2.5	/	-6	-1.3
Nc1nonc1C(=O)NCCN=Cc1cc(Cc2ccccc2)cc(Br)c1O	-25	-2	3	-0.2	31%	14	-8.6
COc1cc(SC)ccc1C(=O)Nc1ccc(C)cc1	/	4	-6	2.9	-5%	3	-2.3
CN(C)CCn1c(N)nc2ccccc21	-4.9	-7	-4	2.2	/	3	-0.5
Clc1ccc2nc(-c3ccncc3)cc(-c3ccccc3)c2c1	5.7	-1	1	4.6	/	-1	1.8
Cc1cc(C)nc(NC(=O)c2cc(Br)ccc2Cl)n1	0.4	-6	1	11	/	-2	3.5
S=C(NCc1ccc2c(c1)OCO2)NC1CC1	1.7	-16	/	-5.5	-5%	-2	0.9
Cc1cc(C)nc(NS(=O)(=O)c2ccc(NC(=O)CCC3COc4ccccc4O3)cc2)n1 (stereo not given)	/	-11	-13	0.4	-5%&-4%	-3	1.6
CCCn1nc(C(=O)N2CCc3ccccc32)c2ccccc2c1=O	/	/	-2	-3.9	-5%	6	-2.4
CC1=C(C(=O)OC(C)C)C(c2cn(-c3ccccc3)nc2-c2cccs2)NC(=O)N1 (stereo not given)	?	22	-11	-0.4	24%	26	2.8
COc1ccc(N(C(C)=O)c2nc(C)cc(C)c2C#N)c(OC)c1	1.3	7	0	1.4	/	-1	-0.7
CCOC(=O)N1CCC(N2C(=O)c3ccccc3C2Nc2ccc3c(c2)OCCO3)CC1 (stereo not given)	4.3	-9	9	7.0	6%&1%	-11	4.3
CCCCNc1c(-c2cccc(-c3cc(C(C)=O)cs3)c2)nc2cc(C)ccn12	?	12	/	0.1	/	37	-3.1

# Additional entries:
SMILES	RanGTP-Imp inh	Calb FLC	ALR inh	LANA-H2A inh	Vif A3G	B2AR ag	HNF4A DNA FP
O=C(Cn1c(=O)oc2ccccc21)Nc1ccccc1Cl	2.0	-3	4	3.5	2%	-7	0.4
COc1ccc(-c2cc(C)no2)cc1S(=O)(=O)NCCCN(C)Cc1ccccc1	3.2	21	0	-1.6	/	-8	-0.3
Cc1cccnc1NC(=O)CSc1ccc2c(c1)OCCO2	/	/	/	-3.5	-5%	-2	2.5
CC(=O)c1ccc(N2CCN(C(=O)Nc3cccc(F)c3)CC2)cc1	1.6	-12	-12	-0.3	-3%	6	1.9
COc1ccc(N(CC(=O)NCCC(C)C)C(=O)c2snc(C(=O)NC3CCCCC3)c2N)c(OC)c1	2.1	12	/	/	/	2	-2.1
COc1ccc(Br)c(C(=O)OCC(=O)NC2CC2)c1	/	/	/	-5.0	-7%	-3	-3.1
